HCMV NEC inh = inhibitors of HCMV UL50-UL53 interaction, biochemical, HTRF; 190,000 tested, 0.15% active; normalized percent inhibition; inhibition, % (concentration not given with the values);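 active means both replicates at 50% or more, plus weaker picks with an unusually low signal ratio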;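 further: stock transfer was 100 nL into about 20 µL; 0% = negative control wells and 100% = wells with untagged competitor protein; inactives centre near -12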
Sa growth inh = S. aureus growth inhibition at 42 and 30 °C, primary screen, LtaS inhibitor project, RN4220, two temperatures; relative growth, % (no concentration beside the values); 170,000 tested, 0.53% active; OD600, 20 h, 42 °C; active compounds read low;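 active means growth at 42 °C up to 50% and 20 or more points under that at 30 °C, or under 10% at both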;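 further: 300 nL library stock went into each well; scaled to the means of positive and negative controls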
GIV-Gai inh = inhibitors of GIV peptide binding to Galpha-i3, primary screen, biochemical, fluorescence polarization, FITC-GIV GBA peptide, rat Galphai3. 90 min; active compounds read low; scaled: aluminum fluoride 0%, vehicle 100%. percent of control (FP), % (no concentration beside the values). 210,000 tested, 0.42% active. AID 1224905, 2016;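 active means replicate mean at 85% of control or lower, very high polarization wells dropped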;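 further: wells of about 15 µL received 100 nL stock; the first replicate is given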
Target sequence (P08753 whole entry, looked up): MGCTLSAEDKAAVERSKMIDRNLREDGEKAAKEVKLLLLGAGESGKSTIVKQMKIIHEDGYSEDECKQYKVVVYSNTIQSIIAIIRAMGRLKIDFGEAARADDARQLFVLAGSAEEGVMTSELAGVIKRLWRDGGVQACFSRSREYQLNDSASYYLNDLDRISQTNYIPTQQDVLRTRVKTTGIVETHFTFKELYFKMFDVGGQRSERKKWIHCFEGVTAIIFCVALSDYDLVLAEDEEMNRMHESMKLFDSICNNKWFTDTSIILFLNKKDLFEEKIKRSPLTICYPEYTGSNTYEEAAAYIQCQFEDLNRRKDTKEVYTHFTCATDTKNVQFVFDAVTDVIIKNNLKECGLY
Sa growth inh second temp = recorded beside Sa growth inh, whose call it bears; relative growth, %; measured here: growth at 30 °C;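 optical density after 20 h as mean of two plates; 100% = untreated growth and lower means inhibition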
* = called active by the depositor; nt = no result given; & = joins results of further samples.

SMILES	HCMV NEC inh	Sa growth inh	Sa growth inh second temp	GIV-Gai inh
CCCNCc1nc(-c2cccc(C)c2)no1	-17	95	91	103
COc1ccc(C(C(=O)NC2CCCC2)N(Cc2ccc(C)cc2)C(=O)c2ccn[nH]2)cc1OC (stereo not drawn)	-4	105	85	105
CCOc1ccc(NC(=O)Cn2c3ncccc3c(=O)n2-c2ccc(CC)cc2)cc1	nt	107	87	104
CC(=O)n1nc(C)c(CS(=O)(=O)c2ccccc2)c1C	-8	nt	nt	107
C=CCOC(=O)C1=C(C)Nc2nc(SCC=C)[nH]c(=O)c2C1c1ccc(C(C)C)cc1 (stereo not drawn)	-24	nt	nt	96
Cc1ccc(OCc2cc(=O)n3ccsc3n2)cc1	-44	nt	nt	96
CC(C(=O)Nc1nccs1)C1SC(=O)NC1=O (stereo not drawn)	nt	107	89	101
C=CCn1c(N)c(S(=O)(=O)c2cccc(C)c2)c2nc3ccccc3nc21	-28	84	64	105
CCOc1ccccc1CNC(=O)c1nn(C)c2c1CS(=O)(=O)c1ccccc1-2	4	90	75	105
FC(F)(F)Oc1ccc2c(c1)c1nc3ccccc3nc1n2Cc1ccccn1	-7	nt	nt	110
O=C(NCCN1CCOCC1)c1ccc2c(c1)N(Cc1ccccc1)C(=O)c1ccccc1S2	2	105	100	110
Cc1oc(C(N)=O)nc1-c1ccccc1	0	100	97	97
Cc1ccc2cc(-c3noc(CCC(=O)Nc4ccccc4Cl)n3)c(=O)[nH]c2c1	-32	nt	nt	104
COc1ccc(-n2c(C)nnc2SCC(=O)NCc2cc3cc(Cl)ccc3n2C)cc1	nt	91	82	100
COc1cc2nc(N(C)C)nc(N)c2cc1OC	-17	88	90	109
O=C(O)c1ccc(Sc2ccccc2C(=O)O)c(C(=O)O)c1	-39	92	85	105
CC(Oc1ccc2c(=O)c(-c3ccc(Cl)cc3)coc2c1)C(=O)O (stereo not drawn)	nt	104	88	99
COc1cccc(COC(=O)c2ccc3c(c2)C(=O)N(Cc2ccncc2)C3=O)c1OC	-92	108	93	nt
CCOC(=O)C=C1CCN(c2ncc(C(F)(F)F)cc2Cl)CC1	-4	nt	nt	99
Cc1nc2nc(NC(=O)C(C)(C)C)[nH]n2c(=O)c1Cc1ccccc1	8	100&94	92&93	100&101

6 entries from above, with bars between the fields.
compound | HCMV NEC inh | Sa growth inh | Sa growth inh second temp | GIV-Gai inh
COc1ccc(C(C(=O)NC2CCCC2)N(Cc2ccc(C)cc2)C(=O)c2ccn[nH]2)cc1OC (stereo not drawn) | -4 | 105 | 85 | 105
CCCNCc1nc(-c2cccc(C)c2)no1 | -17 | 95 | 91 | 103
C=CCOC(=O)C1=C(C)Nc2nc(SCC=C)[nH]c(=O)c2C1c1ccc(C(C)C)cc1 (stereo not drawn) | -24 | nt | nt | 96
CC(=O)n1nc(C)c(CS(=O)(=O)c2ccccc2)c1C | -8 | nt | nt | 107
CCOc1ccccc1CNC(=O)c1nn(C)c2c1CS(=O)(=O)c1ccccc1-2 | 4 | 90 | 75 | 105
CCOC(=O)C=C1CCN(c2ncc(C(F)(F)F)cc2Cl)CC1 | -4 | nt | nt | 99

Going on with the list.
SMILES	HCMV NEC inh	Sa growth inh	Sa growth inh second temp	GIV-Gai inh
COc1ccc(C2(CNC(=S)Nc3ccccc3)CCOCC2)cc1	nt	97	78	104
CC(C(=O)Nc1ccc(F)c(F)c1F)N1C(=O)c2ccccc2S1(=O)=O (stereo not drawn)	-28	94	84	104
O=C(NCCCN1CCCCCC1)c1ccc(N2CCCC2=O)cc1	-7	100	105	112
O=C(Nc1ccc2ccccc2c1)C1CCC1	-23	92	94	nt
O=C(c1ccc2c(c1)N(Cc1ccc(F)cc1)C(=O)c1ccccc1S2(=O)=O)N1CCCCC1	1	108	105	109
S=C(NCc1ccco1)SCc1cn2cccnc2n1	6	95	78	nt
CCN(CC)c1ccc(-n2nc3cc(C)c(NC(=O)c4ccccc4F)cc3n2)cc1	-44	102	88	106
COCc1ccccc1Cn1cnc2ccccc21	-2	112	102	98
CCS(=O)(=O)c1oc(-c2ccc(F)cc2)nc1S(=O)(=O)c1ccccc1	-12	2.2*	20*	108
COc1ccc(N2CCN(C(=NCCc3ccccc3)Nc3ccc(C(=O)O)cc3)CC2)cc1	-27	102	75	114
O=C(CSc1nc(-c2ccccc2)[nH]c1-c1ccccc1)Nc1ccc2c(c1)OCCO2	-12	104	70	98
CC(=O)Oc1ccc2c(=O)c(Oc3cc(C)cc(C)c3)coc2c1	nt	109	89	106
O=S(=O)(NNc1c(Cl)cncc1Cl)c1ccc2c(c1)OCC2	-34	92	86	103
CCc1ccc(S(=O)(=O)Nc2c(-n3cnnc3)nn(C)c2C)cc1	-38	nt	nt	101
O=C(NCc1ccccc1)c1cn(-c2ccccc2)nc1-c1cccs1	-23	64	97	nt
CC1=C(C(=O)Nc2ccccc2)C(c2ccc(C(=O)O)cc2)n2ncnc2N1 (stereo not drawn)	-21	91	87	97&103
O=C(Cn1cc(S(=O)(=O)Cc2ccc(F)cc2)c2ccccc21)N1CCc2ccccc2C1	-3	nt	nt	111
O=c1c2ccccc2nnn1CN1CCN(S(=O)(=O)/C=C/c2ccccc2)CC1	-45	102	95	nt
Cc1ccc(CNC(=O)c2nnn(CC(=O)Nc3cc(C)ccc3C)c2N)cc1	nt	82	88	103
CCOc1ccc(C2C3=C(CC(c4ccccc4O)CC3=O)Nc3onc(C)c32)cc1 (stereo not drawn)	-2	nt	nt	96
O=C(COC(=O)c1cccc(S(=O)(=O)N2CCCCC2)c1)NCc1ccccc1	8	97	99	nt
CCOC(=O)C1CCN(C(=O)Cn2nc(C)n3c(cc4sccc43)c2=O)CC1	-29	109	91	100
Cc1cccc(-c2nc3nc(C)cc(Nc4cccc5nsnc45)n3n2)c1	-30	nt	nt	111
Cc1noc(C)c1CSCC(=O)OCc1cc(=O)n2c(n1)sc1ccccc12	-23	82	62	nt
c1ccc(CNc2nc3ccccc3n3nnnc23)cc1	-7	94	87	127
CCN1CCN(c2cc(C)c3ccc(OC)cc3n2)CC1	-15	96	56	nt
COc1ccc(CCNC(=O)c2cc3c(s2)-c2ccccc2OC3)cc1OC	-22	96	96	103
Cc1cc(C)cc(NC(=O)c2cnc3sc(N4CCCC4)nn3c2=O)c1	nt	104	91	103
COC(=O)COc1nc(C)nc2c1sc1nc(C)cc(C)c12	-6	118	91	107
CCc1ccc(N2C(=O)C3CCCN3C2=S)cc1 (stereo not drawn)	nt	94	88	104
COCC(=O)N1CCC(n2nnc3cc(F)ccc32)CC1	0	111	106	100
O=C(NC1CCCCC1)C1CCN(C(=O)c2cccn2-c2cccnc2)CC1	-27	nt	nt	104
C=CCn1c(=N)n(CC(O)c2cccc(Br)c2)c2ccccc21 (stereo not drawn)	-3	86	81	96
N#CCCn1cc(/C=C/C(=O)N2CCC(c3nc4ccccc4s3)CC2)c2ccccc21	-21	87	85	nt
CCOC(=O)c1sc2ccccc2c1Cl	-8	108	117	107
O=C(NCCCSc1ccccc1)Nc1ccccc1	6	104	85	nt
O=C1CCC2(C(=O)O)SCCN12 (stereo not drawn)	-10	97	92	nt
O=C(CN1CCN(C/C=C/c2ccccc2)CC1)Nc1ccccc1C(=O)NC1CC1	6	100	94	nt
CCOC(=O)c1cc2c(c(CSc3nc4ccccc4c(=O)n3CCN3CCOCC3)c1)OCOC2	-36	86	86	102
N#CCC1Nc2ccccc2S(=O)(=O)N1 (stereo not drawn)	nt	98	93	106

Single records, from the list above:
`CC(=O)Oc1ccc2c(=O)c(Oc3cc(C)cc(C)c3)coc2c1` reads HCMV NEC inh = nt; Sa growth inh = 109; Sa growth inh second temp = 89; GIV-Gai inh = 106
`CCOC(=O)c1cc2c(c(CSc3nc4ccccc4c(=O)n3CCN3CCOCC3)c1)OCOC2` reads HCMV NEC inh = -36; Sa growth inh = 86; Sa growth inh second temp = 86; GIV-Gai inh = 102

Further structures.
SMILES	HCMV NEC inh	Sa growth inh	Sa growth inh second temp	GIV-Gai inh
Cc1c(C(=O)NCCN(C)C)oc2c1-c1nn(Cc3ccccc3Cl)cc1CC2	8	94	105	102
Cn1nc(-c2ccc(Cl)cc2)c2ccccc21	0	44	54	nt
CCOC(=O)Cn1nc(NC(=O)COc2ccc(F)cc2)cc1C	-18	92	97	106
CC(=O)N1N=C(CC#N)OC1(C)CC(=O)Nc1ccccc1 (stereo not drawn)	3	98	88	nt
CCn1nc(C)cc1C(=O)OCC(=O)c1ccc(Cl)cc1	-9	84	87	102
O=C(c1cccs1)N1N=C2c3ccccc3CCC2C1c1ccccc1Cl (stereo not drawn)	-1	117	97	106
CC1Oc2ccccc2C(=O)N(CC(=O)c2cccc(S(=O)(=O)N(C)C)c2)C1=O (stereo not drawn)	-27	nt	nt	102
O=C1CCCC2=C1C(c1ccc(Cl)cc1)Nc1ccccc1N2 (stereo not drawn)	-21	90	84	101
CC1=C(C(=O)OC2CCCC2)C(c2cc3c(cc2Br)OCO3)NC(=O)N1C (stereo not drawn)	-26	nt	nt	101
O=C(CSc1nnc2scc(-c3ccc(Cl)cc3)n12)Nc1ccc(F)cc1	-33	101	83	106
COc1ccc(-c2cc(-c3ccccc3)c(C#N)c(SCCS(=O)Cc3ccccc3)n2)cc1 (stereo not drawn)	nt	95	82	99
O=C(Nc1c(C(=O)Nc2cccc(F)c2)oc2ccccc12)c1cc2ccccc2o1	-15	99	82	102
COc1ccc(NC(=O)N2CCCC2c2nnc(C(=O)Nc3cccc(F)c3)s2)cc1OC (stereo not drawn)	-26	nt	nt	102
CN(C(=O)c1ccccc1)c1ccccc1	10	74	99	nt
CCCC(=O)Nc1ccc(C(=O)CSc2nnc(Cc3ccccc3)o2)cc1	-6	95	89	nt
Cc1cn2c(=O)cc(COc3cccc(NC(=O)C(C)Oc4ccccc4)c3)nc2s1 (stereo not drawn)	-22	nt	nt	104
O=C(Nc1cccc(Cl)c1)C1CCN(c2ccc(C(F)(F)F)cn2)CC1	-23	90	86	103
CCN1CCc2c(sc(NC(=O)c3ccc(S(=O)(=O)N4CCCC(C)C4)cc3)c2C(=O)OC)C1 (stereo not drawn)	nt	118	91	107
COc1ccc(CCNC(=O)C2COc3ccccc3O2)cc1 (stereo not drawn)	-3	111	73	103
COc1ccccc1N1CC(C)(C)C(=O)N(C(=O)c2ccc(C)cc2)C1=S	4	114	101	105

Rewritten with two lines to a compound: part of the list above.
Each structure is followed by: HCMV NEC inh	Sa growth inh	Sa growth inh second temp	GIV-Gai inh
COc1ccc(-c2cc(-c3ccccc3)c(C#N)c(SCCS(=O)Cc3ccccc3)n2)cc1 (stereo not drawn)
    nt	95	82	99
O=C(Nc1c(C(=O)Nc2cccc(F)c2)oc2ccccc12)c1cc2ccccc2o1
    -15	99	82	102
COc1ccc(NC(=O)N2CCCC2c2nnc(C(=O)Nc3cccc(F)c3)s2)cc1OC (stereo not drawn)
    -26	nt	nt	102
CN(C(=O)c1ccccc1)c1ccccc1
    10	74	99	nt

Remaining list, next part:
SMILES	HCMV NEC inh	Sa growth inh	Sa growth inh second temp	GIV-Gai inh
O=C(/C=C/c1ccc(F)cc1)OCC(=O)c1ccccc1	10	115	98	nt
CCCSc1nnc2c(n1)OC(/C=C/c1ccc([N+](=O)[O-])o1)Nc1ccccc1-2 (stereo not drawn)	-33	nt	nt	104
Cc1ccc(-n2ncc3c(=O)n(CC(=O)NC4CCCCC4)cnc32)c(C)c1	-20	95	88	105
O=C(O)CONS(=O)(=O)c1ccc(F)cc1	-17	100	82	nt
Cc1ccccc1N=Cc1sc2ccccc2c1O	-15	106	73	157
COc1cc(NC(=O)c2cc(Cl)c(OC)c(Cl)c2)ccc1NC(=O)c1cc2ccccc2o1	-3	111	100	105
CC1CCN(c2ccc(-c3ccc(NS(=O)(=O)c4ccc5c(c4)OCCO5)cc3)nn2)CC1	-14	nt	nt	97
Cc1cc(C(=O)COC(=O)c2ccc(S(=O)(=O)N3CCCC3)cc2)c(C)n1Cc1cccs1	5	86	96	nt
Cc1ccccc1OCCNC(=O)c1ccco1	-1	104	90	nt
COc1c(/C=C2/SC(=Nc3ccccc3)NC2=O)cccc1[N+](=O)[O-]	3	nt	nt	101
COc1cccc(/C=C2\N=C(SC)SC2=O)c1	nt	85	87	111
O/N=C1\CCCc2nnc3c(c21)CCCC3	-11	122	101	113
CCOc1ccc(CO)cc1OCC	-25	103	85	nt
CCN(CC)S(=O)(=O)c1ccc(N2CCc3ccccc32)nc1	26	122	99	nt
COc1ccc(-c2nc(SCC(=O)NCC3CCCO3)c(-c3ccc(Cl)cc3)[nH]2)cc1 (stereo not drawn)	-8	89	87	99

High-throughput results: PubChem BioAssay, ICCB-Longwood Screening Facility, Harvard Medical School
